TRPV1 potentiator = potentiators of human vanilloid receptor 1 (TRPV1); TRPV1-expressing cells, Fluo-8 calcium influx, capsaicin EC20 potentiation; host cell line not named in the record; control for the full effect not named in the record; potentiation, % at 8.33 µM; 320,000 compounds, 0.02% hits; AID 540277; active means potentiation above 80%; inconclusive means 30% to 80%; inactive means below 30%; also: 0% is about no effect
Target sequence (Q8NER1 whole entry, looked up): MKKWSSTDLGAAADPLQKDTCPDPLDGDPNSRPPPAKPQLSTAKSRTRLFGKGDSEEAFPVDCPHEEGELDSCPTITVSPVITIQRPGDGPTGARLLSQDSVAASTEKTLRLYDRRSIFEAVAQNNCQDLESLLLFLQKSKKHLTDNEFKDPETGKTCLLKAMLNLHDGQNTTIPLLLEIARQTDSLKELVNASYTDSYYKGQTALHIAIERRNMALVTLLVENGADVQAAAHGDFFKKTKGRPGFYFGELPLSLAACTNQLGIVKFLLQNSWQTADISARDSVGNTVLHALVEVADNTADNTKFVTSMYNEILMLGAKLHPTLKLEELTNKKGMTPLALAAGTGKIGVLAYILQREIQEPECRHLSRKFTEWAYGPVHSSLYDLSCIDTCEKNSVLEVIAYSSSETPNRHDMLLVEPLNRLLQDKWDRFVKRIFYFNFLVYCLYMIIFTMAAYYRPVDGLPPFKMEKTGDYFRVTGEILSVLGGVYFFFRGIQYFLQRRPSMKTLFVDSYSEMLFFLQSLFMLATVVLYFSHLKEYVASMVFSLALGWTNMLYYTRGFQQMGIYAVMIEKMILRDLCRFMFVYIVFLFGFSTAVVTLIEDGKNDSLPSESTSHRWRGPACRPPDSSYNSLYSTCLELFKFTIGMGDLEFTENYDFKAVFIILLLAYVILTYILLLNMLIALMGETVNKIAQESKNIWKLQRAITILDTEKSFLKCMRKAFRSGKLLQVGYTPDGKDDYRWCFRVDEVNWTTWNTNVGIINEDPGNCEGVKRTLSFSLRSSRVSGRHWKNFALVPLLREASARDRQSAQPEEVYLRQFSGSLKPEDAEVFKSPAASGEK
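TRPV1-expressing cells were cultured overnight at 35.5C and loaded with Fluo-8 calcium dye for 40 to 90 min at room temperature. After a 10 s baseline, compound was added and calcium influx was read kinetically for 3 min (ex 480/em 520 nm).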
Sfp inh = blocks B. subtilis Sfp PPTase activity. Q9F4F7. Biochemical Sfp PPTase activity, qHTS. Potency, µM, for the others: max response, negative = inhibition, usual class: inhibitors. 310,000 compounds, 3.5% hits. AID 1490; active = well fitted inhibition curve with a large enough effect; inconclusive = small, poorly fitted or top-dose-only effect, or another doubt; inactive = no such curve, though single readings can be large or run the other way;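 also: the enzyme is Sfp with the accession as filed and its product quenches rhodamine fluorescence; potency is read from the fitted curve at half-maximal effect; 0% = enzyme reaction without inhibitor and -100% = no enzyme wells; top concentration of the series not given in the record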
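Buffer: 50 mM Hepes-Na pH 7.6, 10 mM MgCl2, 0.01% Nonidet P-40, 0.01% BSA. Enzyme 15 nM, pre-exposed to compound 15 min; substrates then added and fluorescence change tracked over 30 min.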
Menin-MLL FL inh = menin-MLL binding inhibition, fluorescein peptide. Fluorescence polarization, fluorescein-MLL peptide displacement from menin. FP activity change, % at 61.4 µM. 290,000 tested, under 10 active. AID 1766; inconclusive = falling polarisation curve, or a change in total fluorescence; inactive = total fluorescence flat and polarisation flat or rising; no compound was filed as active; the % refers to the polarisation; negative = inhibition;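 also: % of control where 0% means no effect; inhibitors lower the polarisation; unlabelled MLL peptide was the positive control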
TRPML1 inh = blocks the human TRPML1 channel | TRPML1-inducible cells, Ca2+ dye fluorescence, FDSS; stronger effect = lower value; inhibition of EC80 agonist-evoked calcium signal | activity change, negative = inhibition, % (test concentration not listed) | AID 624415 | 390,000 compounds, 0.02% hits | Q9GZU1; in the data active means activity change below about -50%; inconclusive means about -30% to -50%; inactive means above about -30%;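 also: stimulus is agonist 54-4 at its EC80 concentration; % is scaled to controls: 0 for no effect and ±100 for the full control effect; compound concentration not given in the record; the text of the record puts the active cut at -80%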
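Calcium fluorescence in TRPML1-DL cells induced overnight with Tet: a 110 s read after compound pin addition, then a 110 s antagonist read after challenge with 54-4 at 4 uM final (EC80).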
PINK1 modulator = changes PINK1 expression; PINK1 immunofluorescence, high-content cytometry, 24 h; Potency, µM (doses to about 76.6 µM), without a hit: top-dose activation (PINK1 increase), hits mostly activators; AID 624263; 410,000 compounds, 0.2% hits; active = well fitted activation curve with a large enough effect; inconclusive = small, poorly fitted or top-dose-only effect; inactive = flat fitted curve, though single readings scatter; cell line not stated here;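 also: potency is read from the fitted curve at half-maximal effect; % of control where 0% means no effect; nearly all actives have a fitted effect of over 65% in size; a mitochondrial uncoupler was the plate control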
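Measures PINK1 amount and localization on or inside mitochondria by immunofluorescence. Stable cells get compounds at 5 concentrations for 24 hours before fixation and staining; CCCP controls included.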
ClpP mod = qHTS Assay for Activators of ClpP; Potency, µM (highest dose often 57.5 µM), for inactives: at the highest dose activity change, negative = active; purified B. subtilis ClpP, FRET peptide cleavage, 20 min; 340,000 compounds, 1.9% hits; AID 651965, 2013; ATP-dependent Clp protease proteolytic subunit (Bacillus subtilis (strain 168)), P80244; active = well fitted falling curve with a large enough effect; inconclusive = small, poorly fitted or top-dose-only effect; inactive = no such curve, though single readings can be large or run the other way; also: potency is read from the fitted curve at half-maximal effect; the source files actives as falling curves though it sought activators and does not explain the sign; nearly all actives have a fitted effect of over 65% in size; many hits overshoot -100%
Target sequence (P80244 whole entry, looked up): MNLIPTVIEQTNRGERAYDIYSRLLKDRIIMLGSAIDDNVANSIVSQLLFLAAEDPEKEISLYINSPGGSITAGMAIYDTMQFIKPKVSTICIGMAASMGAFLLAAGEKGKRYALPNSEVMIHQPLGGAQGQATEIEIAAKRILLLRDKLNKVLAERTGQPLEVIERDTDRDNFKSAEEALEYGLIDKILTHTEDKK
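Purified B. subtilis ClpP, 10 microg/mL final in Tris/HCl pH8 with KCl, BSA, glycerol and Tween-20, cleaved an Abz/nitrotyrosine-quenched decapeptide. Fluorescence (ex 320, em 430) was read at 0 and 20 min at room temperature. Delta was normalized to 5.8 microM ADEP and DMSO/no-enzyme controls.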
TRPML1 ag = human mucolipin-1 channel agonism | Q9GZU1 | activation, % (concentration not given with the values) | TRPML1-expressing cells, Ca2+ dye fluorescence, FDSS; host cell line not named in the record; reference of the full effect not given here | 410,000 compounds, 0.12% hits; in the data active = activation above about 50%; inconclusive = about 30% to 50%; inactive = below about 30%; also: 0% is about no effect; the text of the record puts the active cut at 80%
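TRPML1-DL cells, Tet-induced overnight (~16 h, 37 degrees C), loaded 45-90 min at room temperature with Ca8 no-wash calcium dye plus quencher. FDSS fluorescence: 10 s baseline, compound pin-transfer, 110 s agonist read, then EC80 54-4 (4uM final) and 110 s antagonist read.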
* hit, by the source's call; ? = inconclusive; nt = not tested or not shown; & = joins results of further samples; [ ] = dose if it differs, or a comment.

SMILES	TRPV1 potentiator	Sfp inh	Menin-MLL FL inh	TRPML1 inh	PINK1 modulator	ClpP mod	TRPML1 ag
Cc1cc(C)cc(N=C2SC(CC(=O)Nc3ccccc3)C(=O)N2CCN2CCOCC2)c1 (configuration not stated)	-10.5	2.9%	2.6	6.0	1.1%	0.7%	-1.2
COc1ccc(-c2cc(C(=O)Oc3ccc(C)cc3)c3cc(C)ccc3n2)cc1	nt	nt	nt	6.9	2.1%	?	-0.1
COc1ccccc1NS(=O)(=O)c1cc2c3c(c1)CC(=O)N3CCC2	2.9	5.2%	5.2	-1.3	0.9%	-0.8%	-0.7
Cc1ccc(S(=O)(=O)NCc2ccc(C(=O)NC3CC3)cc2)cc1	9.7	-1.3%	1.0	-19.2	0.3%	0.5%	0.3
CCCCn1c(-c2cccc(F)c2)nc2c1c(=O)[nH]c(=O)n2CC(C)C	14.4	6.0%	-4.7	-5.4	2.9%	nt	2.1
Cc1oc(-c2ccccc2)cc1C(=O)NC1CCN(Cc2ccccc2)CC1	nt	11.9%	-1.4	-15.1	1.8%	-1.8%	0.0
O=C(NCC(c1ccc2c(c1)OCO2)N1CCN(c2ccccc2)CC1)C(=O)Nc1ccc(F)cc1 (configuration not stated)	nt	nt	nt	12.9	0.5%	1.8%	1.4
COc1ccc(NC(=O)C23CC4CC(CC(Cl)(C4)C2)C3)cc1S(=O)(=O)N1CCOCC1	nt	nt	nt	23.2	-0.4%	nt	0.0
O=C(Nc1nnc(-c2ccc(F)cc2)s1)Nc1ccccc1F	10.6	17.8%	1.3	-9.5	-0.4%	-8.0%	2.3
COc1ccc(N2CCN(CCC(O)c3ccc4ccccc4c3)CC2)cc1 (configuration not stated)	17.8	-12.4%	-1.8	-14.1	5.0%	-7.0%	0.1
O=C1C(Cl)=C(NCCc2ccccc2)C(=O)c2ccccc21	nt	nt	nt	11.0	0.8%	nt	1.2
O=C(NCC(c1ccco1)N1CCCCC1)c1cccc(S(=O)(=O)Nc2ccc(F)cc2)c1 (configuration not stated)	-12.2	nt	nt	-14.0	0.4%	0.1%	0.0
O=C(CCNS(=O)(=O)c1ccc(F)cc1)N1CCN(c2ncccn2)CC1	nt	nt	nt	-5.5	1.4%	-15.1%	-0.7
CC(C)N(C(=O)COC(=O)[C@H](C)NC(N)=O)c1ccccc1	-1.3	-16.6%	-2.5	-6.3	0.1%	-1.6%	-0.3
O=C(/C=C/c1ccc(N2CCC(c3ccccc3)=N2)cc1)c1ccccc1	12.8	-5.2%	?	-3.3	?	-1.7%	87.2*
Cc1ccnc(N/C=C(\C#N)c2nc(-c3cccc(Br)c3)cs2)c1	14.5	?	?	-1.8	20.2%[38.3 µM]	-0.7%	14.3
CC1CN(C(=O)c2cccs2)CCN1C(=O)c1cccs1 (configuration not stated)	-8.2	13.5%	3.1	11.7	-0.5%	-0.3%	-0.1
COc1ccccc1CNC(=O)CCNS(=O)(=O)/C=C/c1ccc(C)cc1	nt	nt	nt	-9.7	-1.3%	-0.7%	-0.3
Cc1ccc(C)c(NC(=O)C2CCCN(S(=O)(=O)c3ccc4[nH]c(=O)ccc4c3)C2)c1 (configuration not stated)	-0.4	12.3%	0.0	21.7&-9.2	14.6%&6.0%	7.1%&17.7%	0.7&-0.8
CC(C)C(C(=O)NCC1CCCO1)N(Cc1ccco1)C(=O)CNS(=O)(=O)c1ccccc1 (configuration not stated)	4.0	19.3%	0.0	13.0	-0.7%	-2.3%	0.2
C=CCc1cc(Cl)ccc1OCCCNC(C)CC (configuration not stated)	6.8	-6.0%	6.5	11.5	-1.9%	-7.8%	1.3
c1ccc2c(OCCCN3CCCCCC3)cccc2c1	-12.9	-6.5%	-0.3	nt	7.7%	-28.2%	nt
Cc1ccc(C)n1-c1cccc(C(=O)O)c1	10.5	-25.6%	?	nt	nt	nt	nt
CCN(CC)CCNC(=O)Cn1cnc2sc(C)c(S(=O)(=O)N3CC(C)CC(C)C3)c2c1=O (configuration not stated)	8.1	15.9%	-0.4	-13.8	3.0%	nt	-0.4
Cn1c(=O)n(CCc2ccccc2)c(=O)c2c1nc1n2CCCN1c1ccccc1	-0.6	8.2%	1.9	-4.9	nt	-0.4%	0.0

Further compounds follow:
SMILES	TRPV1 potentiator	Sfp inh	Menin-MLL FL inh	TRPML1 inh	PINK1 modulator	ClpP mod	TRPML1 ag
Cn1cc(CN2CCN(c3cnccn3)CC2)c(-c2cccc(Cl)c2)n1	-5.7	9.4%	-3.6	19.9	-0.2%	nt	3.6
O=C(NC(Cc1ccccc1)C(=O)N1CCCC1C(=O)O)c1ccccc1 (configuration not stated)	-1.7	2.9%	2.3	0.1	0.2%	0.4%	0.3
CC(NC(=O)c1ccc2c(c1)C(=O)N(Cc1cccnc1)C2=O)c1ccccc1 (configuration not stated)	-8.1	5.1%	nt	-7.0	1.4%	-2.2%	2.1
COc1ccc(CNC(=O)C2CCN(C(=O)Cc3ccccc3)CC2)cc1	7.0	8.3%	-0.1	25.7	-1.5%	nt	2.5
CC(C)(C)c1ccc(O)c(O)c1	2.3	nt	nt	11.8	1.1%	1.8%	-1.1
COc1ccc(/C=C/C(=O)NC(C)CCc2ccccc2)cc1OC (configuration not stated)	2.2	17.5%	-1.6	4.7	14.1%	-17.9%	1.7
CS(=O)(=O)N(CC(=O)NCc1ccco1)c1ccc(OCc2ccccc2)cc1	?	?	16.2	-24.5	7.7%	nt	1.9
COc1cccc(-c2nc(-c3ccc4c(c3)NC(=O)CO4)cs2)c1	8.0	?	-5.8	2.0	7.1%	nt	3.6
Cc1ccc2nc(C)c(C(=O)N/N=C/c3ccc(N4CCOCC4)cc3)cc2c1	-16.8	15.2%	-0.4	-19.3	6.8%	0.0%	-0.7
COc1ccccc1CNC(=O)CS(=O)Cc1nc(-c2ccccc2C)oc1C (configuration not stated)	-4.3	3.0%	-3.3	-2.3	-0.4%	-9.9%	1.1
Cn1nccc1NS(=O)(=O)c1ccc(F)cc1	-3.0	8.6%	-1.9	4.2	0.2%	nt	-0.4
COc1cc(/C=C/CNC[C@H]2O[C@@H](n3cnc4c(N)ncnc43)[C@H](O)[C@@H]2O)ccc1O	nt	nt	nt	21.7	0.3%	-4.5%	1.4
N#Cc1ccc(CSc2ccc(S(=O)(=O)N3CCCCCC3)cn2)cc1	-1.4	nt	nt	48.9	1.4%	-0.8%	1.1
Cn1c(/N=C/c2ccccc2[N+](=O)[O-])nc2ccccc21	2.3	?	-0.4	0.4	-1.4%	-1.6%	3.3
COc1ccc(/C=C/C(=O)c2ccc(O)cc2)cc1CN1CCOCC1	-20.5	1.6%	-0.2	-7.9	-1.0%	-1.2%	-0.1
CC(=O)Nc1cccc(C(=O)OCC(=O)NCc2ccc(F)cc2)c1	?	25.7%	-2.9	0.2	-0.3%	-0.2%	-1.1
Cc1ccc(Cl)cc1NS(=O)(=O)c1cc2c3c(c1)CC(=O)N3CCC2	nt	nt	nt	5.2	3.6%	-3.4%	-0.1
CCCCOc1ccc(C(=O)NCC(=O)OCC(=O)N2CCN(S(=O)(=O)c3ccc(C)cc3C)CC2)cc1	4.9	20.4%	4.7	-3.3	-2.0%	-1.2%	2.6
CCCN(CCC)c1cc(C)nc2nc(-c3ccc(C(C)(C)C)cc3)nn12	nt	nt	nt	4.1	0.6%	-0.9%	0.5
COc1cccc(-n2nc(C(=O)O)c3ccccc3c2=O)c1	13.6	-24.8%	-1.1	-6.2	nt	0.1%	1.3
CC1(c2nnnn2Cc2ccccc2)CCC(=O)N1CCc1ccc(O)cc1 (configuration not stated)	nt	nt	nt	nt	4.3%	-0.3%	0.7
CC1CCN(CCCCOc2ccc(F)cc2)CC1	2.1	-8.3%	-4.9	6.9	-0.4%	0.7%	-1.0
COc1ccc(OS(=O)(=O)Cc2ccccc2)cc1	-17.6	13.3%	0.3	11.0	-2.5%	nt	0.2
CCOC(=O)[C@@H]1[C@H]2COc3ccc(Br)cc3[C@H]2N2C(=O)N(c3ccc(F)cc3)C(=O)[C@@]12C	5.4	9.7%	-8.1	-6.2	1.5%	-0.4%	-0.4
N#Cc1ccc(OCC(=O)N2CCN(S(=O)(=O)c3cccs3)CC2)cc1	0.0	7.5%	2.7	-3.3	-0.6%	1.0%	-0.3

New compounds follow
SMILES	TRPV1 potentiator	Sfp inh	Menin-MLL FL inh	TRPML1 inh	PINK1 modulator	ClpP mod	TRPML1 ag
COc1ccc(OC)c(CNCc2ccc3c(c2)OCO3)c1	7.0	-12.2%	-0.5	-3.7	1.5%	nt	0.6
CC(N=c1ccccn1C(=O)Nc1ccc(F)cc1)c1ccco1 (configuration not stated)	-24.3	-6.0%	-1.4	3.0	1.0%[38.3 µM]	-4.9%	1.0
COc1ccc2c(C)cc(SCC(=O)Nc3nsc(-c4ccccc4C)n3)nc2c1	nt	nt	nt	-11.7	-1.1%	-10.2%	3.9
CC(=O)NC1=NN(C(C)=O)C2(CCCCC2)S1	4.3	16.4%	0.2	6.0	-2.1%[38.3 µM]	-0.8%	-0.3
CCOc1ccc(OCC)c(NC(=O)C2CCCN(S(=O)(=O)c3cccs3)C2)c1 (configuration not stated)	-0.3	-0.4%	6.2	59.0	-0.6%	-3.9%	0.4
CCOc1ccccc1NC(=O)NCCCCc1ccccc1	-7.8	8.1%	2.8	-11.2	0.8%	0.1%	-0.4
Cc1cc(C)c(C)c(S(=O)(=O)N2C(=S)NC(=O)C2CC(C)C)c1C (configuration not stated)	7.0	6.2%	1.6	4.4	2.6%	1.7%	-0.7
CC1CC(=O)Nc2ccccc2N1C(=O)CSc1ccc2ccccc2n1 (configuration not stated)	nt	nt	nt	1.5	-1.2%	-4.5%	0.4
Cc1ccc(NC(=O)/C=C/c2ccc3c(c2)OCO3)cc1S(=O)(=O)N1CCOCC1	16.4	10.8%	1.0	5.5	12.7%	-4.3%	0.4
Brc1ccccc1-c1nnc(-c2cccnc2)o1	-8.8	16.7%	5.5	13.1	-2.3%	0.0%	0.1

Assay outcomes: PubChem, National Center for Advancing Translational Sciences (NCATS)
